# From PubChem
# UUG fidelity: modulators of yeast start codon fidelity, primary screen, whole organism, S. cerevisiae, single point, plate reader | AID 602363, 2012 | S. cerevisiae UUG-firefly luciferase reporter, luminescence/redox ratio | activity score, % at 18.7 µM | 350,000 tested, 0.13% active;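 active = replicate mean at a twofold rise or more, about +100% in these data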;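 also: firefly luciferase made from a UUG start codon reports start codon fidelity; reporter light over untreated wells divided by growth signal over untreated wells; some hits fall short of that in this replicate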
# Env fusion inh: inhibitors of HIV-1 Env-driven cell-cell fusion, primary screen, HeLa-JRFL effector, CEM21 target cells, luciferase. inhibition, % at 12.3 µM. 360,000 tested, 1.1% active;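 active = mean replicate inhibition score of at least 50 and every replicate individually at or above 50; inconclusive = only one of the two criteria met; inactive = mean below 50 and not all replicates reaching 50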;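 also: 0% = plate neutral controls and 100% = maraviroc near 300 nM; one replicate is shown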
# * = called active by the depositor; ? = inconclusive; [ ] = remark or other dose. An excerpt (hit frequency here may not be typical).
Molecule,UUG fidelity,Env fusion inh
C[C@H]1CCCCO[C@@H](CN(C)CC2CCCCC2)[C@@H](C)CN([C@@H](C)CO)C(=O)c2cc(NC(=O)Nc3ccc(F)cc3)ccc2O1,27,38[16.7 µM]
O=C(N[C@H]1CC[C@@H](CC(=O)N2CCN(c3ccccc3)CC2)O[C@@H]1CO)c1ccncc1,-19,3[16.7 µM]
C[C@@H]1CN([C@@H](C)CO)C(=O)c2cccc(NC(=O)c3cnccn3)c2O[C@@H]1CN(C)CC1CCCCC1,-6,-16[16.7 µM]
CCNC(=O)C[C@@H]1CC[C@H](NC(=O)C2CCC2)[C@H](CO)O1,19,14[16.7 µM]
C[C@@H]1CN([C@H](C)CO)S(=O)(=O)c2ccc(C#C[C@@H](C)O)cc2O[C@H]1CN(C)C(=O)c1ccccc1,10,-8[16.7 µM]
CCCC#Cc1ccc2c(c1)O[C@H](CN(C)S(C)(=O)=O)[C@H](C)CN([C@@H](C)CO)S2(=O)=O,26,13[16.7 µM]
C[C@@H]1CN([C@H](C)CO)C(=O)c2cc(NS(=O)(=O)c3ccc(Cl)cc3)ccc2O[C@H]1CN(C)S(=O)(=O)c1ccccc1,-8,-4[16.7 µM]
Cc1noc(C)c1S(=O)(=O)Nc1cccc2c1O[C@H](CN(C)Cc1ccccc1)[C@H](C)CN([C@@H](C)CO)C2=O,-7,9[16.7 µM]
COc1cccc(NC(=O)C[C@H]2CC[C@H]3[C@H](COc4ccc(NS(=O)(=O)c5cccc(F)c5)cc4C(=O)N3C)O2)c1,4,-4[16.7 µM]
C[C@H]1CCCCO[C@@H](CN(C)Cc2ccc3c(c2)OCO3)[C@@H](C)CN([C@@H](C)CO)C(=O)c2cc(NS(C)(=O)=O)ccc2O1,23,15[16.7 µM]
Cc1ccc(S(=O)(=O)N[C@@H]2CC[C@@H](CCn3cc(C(C)C)nn3)O[C@H]2CO)cc1,-2,12[16.7 µM]
C[C@@H](NC(=O)C[C@H]1CC[C@H](NC(=O)C2CCOCC2)[C@@H](CO)O1)c1ccccc1,-20,-6[16.7 µM]
O=C(C[C@@H]1CC[C@H](NS(=O)(=O)c2ccccc2)[C@@H](CO)O1)NCc1ccc(Cl)c(Cl)c1,4,-10[16.7 µM]
COc1ccc(NC(=O)N(C)C[C@@H]2Oc3c(NS(=O)(=O)c4ccc(OC)cc4)cccc3C(=O)N([C@H](C)CO)C[C@@H]2C)cc1,13,-49[16.7 µM]
C[C@@H]1CN([C@@H](C)CO)C(=O)Cc2cc(NC(=O)CCCCCC(=O)Nc3ccccc3N)ccc2O[C@@H]1CN(C)Cc1ccc(Cl)c(Cl)c1,3,13[16.7 µM]

# Two entries from above, with values under each structure.
# Below each SMILES: UUG fidelity	Env fusion inh
Cc1ccc(S(=O)(=O)N[C@@H]2CC[C@@H](CCn3cc(C(C)C)nn3)O[C@H]2CO)cc1
→ -2	12[16.7 µM]
C[C@@H](NC(=O)C[C@H]1CC[C@H](NC(=O)C2CCOCC2)[C@@H](CO)O1)c1ccccc1
→ -20	-6[16.7 µM]

# Carrying on:
Molecule,UUG fidelity,Env fusion inh
COc1ccc(NC(=O)N[C@@H]2CC[C@H](CCNC(=O)Cc3ccncc3)O[C@@H]2CO)cc1,0,7[16.7 µM]
O=C(C[C@@H]1CC[C@H](NS(=O)(=O)c2ccccc2)[C@H](CO)O1)NCc1ccc(Cl)c(Cl)c1,5,1[16.7 µM]
CC(C)C#Cc1cnc2c(c1)C(=O)N([C@H](C)CO)C[C@H](C)[C@@H](CN(C)C(=O)Nc1cccc(F)c1)O2,45,17[16.7 µM]
C[C@@H]1CN([C@@H](C)CO)C(=O)c2cccc(NC(=O)c3ccc(-c4nccs4)cc3)c2O[C@@H]1CN(C)Cc1ccc(C(=O)Nc2ccccc2N)cc1,12,-108[16.7 µM]
C[C@H]1CN([C@@H](C)CO)C(=O)c2cc(NC(=O)CCC(F)(F)F)ccc2O[C@@H]1CN(C)CC1CCCCC1,-4,-1[16.7 µM]
C[C@@H]1CCCCO[C@@H](CN(C)C(=O)Cc2ccccc2)[C@H](C)CN([C@H](C)CO)C(=O)c2cc(NC(=O)c3ccccc3)ccc2O1,15,-10[16.7 µM]
C[C@H](CO)N1C[C@H](C)[C@@H](CN(C)C(=O)CN(C)C)Oc2ncc(-c3ccc(F)cc3)cc2C1=O,26,-17[16.7 µM]
CS(=O)(=O)N1[C@H](C#N)[C@@H](c2ccc(C#Cc3cccc(F)c3)cc2)[C@H]1CO,7,-9[16.7 µM]
COc1ccc(S(=O)(=O)Nc2ccc3c(c2)CC(=O)N([C@H](C)CO)C[C@@H](C)[C@H](CN(C)C(=O)Nc2cccc4ccccc24)O3)cc1,-4,14[16.7 µM]
COc1ccccc1-c1cnc2c(c1)C(=O)N([C@@H](C)CO)C[C@@H](C)[C@H](CN(C)C(=O)CC1CC1)O2,20,-8[16.7 µM]
Cc1ccc(S(=O)(=O)Nc2cccc3c2O[C@H](CN(C)C(=O)Nc2ccc(C(F)(F)F)cc2)[C@H](C)CN([C@H](C)CO)C3=O)cc1,-3,-13[16.7 µM]
COCC(=O)N(C)C[C@H]1Oc2cc(Br)ccc2S(=O)(=O)N([C@@H](C)CO)C[C@H]1C,-1,13[16.7 µM]
C[C@H]1CCCCO[C@H](CN(C)C(=O)c2ccccc2)[C@@H](C)CN([C@@H](C)CO)C(=O)c2cc(NS(=O)(=O)c3ccc(F)cc3)ccc2O1,8,-4[16.7 µM]
COc1ccc(S(=O)(=O)N(C)C[C@@H]2Oc3c(NC(=O)Nc4ccc5c(c4)OCO5)cccc3C(=O)N([C@@H](C)CO)C[C@H]2C)cc1,8,-55[16.7 µM]
CNC(=O)C[C@@H]1CC[C@@H]2[C@@H](COc3ccc(NC(=O)c4ccccc4Cl)cc3C(=O)N2C)O1,2,-34[16.7 µM]
C[C@@H]1CN([C@H](C)CO)C(=O)Cc2cc(N(C)C)ccc2O[C@@H]1CN(C)Cc1ccc(Cl)c(Cl)c1,9,-19[16.7 µM]
Cc1noc(C)c1S(=O)(=O)Nc1ccc2c(c1)C(=O)N([C@@H](C)CO)C[C@@H](C)[C@@H](CN(C)Cc1ccncc1)O2,8,11[16.7 µM]
CC(C)NC(=O)Nc1cccc2c1O[C@H](CN(C)Cc1ccccc1)[C@@H](C)CN([C@@H](C)CO)C2=O,-26,3[16.7 µM]
COc1ccc(NC(=O)Nc2ccc3c(c2)C(=O)N([C@H](C)CO)C[C@H](C)[C@@H](CN(C)C(=O)NC(C)C)OCCCC[C@@H](C)O3)cc1,14,1[16.7 µM]
O=S(=O)(N[C@H]1CC[C@@H](CCn2cc(C3(O)CCCC3)nn2)O[C@@H]1CO)c1ccc(F)cc1,178*,-25[16.7 µM]
C[C@@H]1CN([C@@H](C)CO)C(=O)Cc2cc(NS(=O)(=O)c3ccc(Cl)cc3)ccc2O[C@H]1CN(C)Cc1ccccc1,20,-11[16.7 µM]
C[C@@H]1CN([C@@H](C)CO)S(=O)(=O)c2ccc(/C=C/c3ccccc3)cc2O[C@@H]1CN(C)C(=O)NC1CCCC1,-11,-7[16.7 µM]
CC(C)C#Cc1ccc2c(c1)O[C@H](CN(C)CC1CC1)[C@H](C)CN([C@@H](C)CO)S2(=O)=O,2,-23[16.7 µM]
COc1ccc([Si](C)(C)[C@@H]2[C@@H](CCn3cc([C@H](O)c4ccccc4)nn3)O[C@]3(C(=O)N(Cc4cccc(N5CCOC5=O)c4)c4ccccc43)[C@H]2C)cc1,-12,-15[16.7 µM]
O=C(Nc1ccccc1F)N[C@H]1CC[C@@H](CCNS(=O)(=O)c2ccc(F)cc2)O[C@@H]1CO,13,-6[16.7 µM]
Cc1ccc(-c2ccc3c(c2)O[C@H](CN(C)Cc2ccc(C(=O)O)cc2)[C@@H](C)CN([C@H](C)CO)S3(=O)=O)cc1,4,23[16.7 µM]
CC(C)NC(=O)N(C)C[C@H]1Oc2ncc(C#CC3(O)CCCC3)cc2C(=O)N([C@H](C)CO)C[C@@H]1C,16,1[16.7 µM]
CN1C[C@H](O)COC[C@H]2O[C@@H](CC(=O)N3CCN(c4ccccc4)CC3)CC[C@@H]21,-6,-9[16.7 µM]
C[C@@H]1CN([C@@H](C)CO)C(=O)c2cc(NC(=O)CCCN(C)C)ccc2O[C@@H](C)CCCCO[C@H]1CN(C)S(=O)(=O)c1ccccc1,9,6[16.7 µM]
COc1ccc(CN(C)C[C@@H]2OCCCC[C@@H](C)Oc3ccc(NC(=O)Nc4cccc5ccccc45)cc3C(=O)N([C@@H](C)CO)C[C@H]2C)cc1,0,5[16.7 µM]
C[C@@H]1CCCCO[C@H](CN(C)C)[C@@H](C)CN([C@H](C)CO)C(=O)c2cc(NC(=O)Nc3ccc(C(F)(F)F)cc3)ccc2O1,69,0[16.7 µM]
COc1ccc(S(=O)(=O)Nc2ccc3c(c2)C(=O)N([C@@H](C)CO)C[C@H](C)[C@@H](CN(C)C(=O)Cc2ccccc2)OCCCC[C@@H](C)O3)cc1,-2,-34[16.7 µM]
COc1cccc(-c2cnc3c(c2)C(=O)N([C@H](C)CO)C[C@H](C)[C@H](CN(C)Cc2cccc(C)c2)O3)c1,5,-14[16.7 µM]
C[C@H](NC(=O)C[C@@H]1CC[C@H]2[C@@H](COC[C@@H](O)CN2Cc2ccc(C(F)(F)F)cc2)O1)c1ccccc1,5,?
COc1cccc(S(=O)(=O)N(C)C[C@H]2Oc3ncc(-c4cccc(C(=O)N(C)C)c4)cc3C(=O)N([C@@H](C)CO)C[C@H]2C)c1,-4,3[16.7 µM]
C[C@@H]1CN([C@@H](C)CO)C(=O)Cc2cc(NC(=O)NC3CCCCC3)ccc2O[C@H]1CN(C)C(=O)Nc1ccccc1,-5,-12[16.7 µM]
Cc1noc(C)c1NC(=O)Nc1ccc2c(c1)C(=O)N([C@H](C)CO)C[C@H](C)[C@@H](CN(C)C(=O)Nc1ccc(F)cc1)O2,-8,13[16.7 µM]
Cc1ccc(S(=O)(=O)Nc2cccc3c2O[C@@H](CN(C)C(=O)Nc2ccccc2)[C@H](C)CN([C@@H](C)CO)C3=O)cc1,2,9[16.7 µM]
C[C@H](CO)N1C[C@H](C)[C@H](CN(C)C(=O)Nc2cccc3ccccc23)Oc2ccc(NC(=O)CCC(F)(F)F)cc2CC1=O,-22,5[16.7 µM]
C[C@H](CO)N1C[C@H](C)[C@H](CN(C)S(=O)(=O)c2ccc(F)cc2)OCCCC[C@H](C)Oc2ccc(NS(=O)(=O)c3ccc(Cl)cc3)cc2C1=O,-1,6[16.7 µM]
CC(C)NC(=O)N(C)C[C@H]1Oc2c(NC(=O)C3CCOCC3)cccc2C(=O)N([C@H](C)CO)C[C@@H]1C,-9,13[16.7 µM]
Cc1ccc(S(=O)(=O)Nc2ccc3c(c2)C(=O)N([C@H](C)CO)C[C@H](C)[C@@H](CN(C)S(=O)(=O)c2ccc(Cl)cc2)OCCCC[C@@H](C)O3)cc1,-9,17[16.7 µM]
COCC(=O)Nc1ccc2c(c1)C(=O)N(C)C[C@H](OC)[C@H](C)CN(Cc1ccccc1)[C@H](C)CO2,1,-1[16.7 µM]
O=C(C[C@H]1CC[C@@H]2[C@H](COC[C@H](O)CN2Cc2ccccc2F)O1)NC1CCC1,-9,19[16.7 µM]
C[C@H]1CN([C@@H](C)CO)C(=O)c2cc(NC(=O)Nc3cccc4ccccc34)ccc2O[C@@H]1CN(C)S(=O)(=O)c1ccc(F)cc1,-1,10[16.7 µM]

# In another format: results already given.
UUG fidelity | Env fusion inh | SMILES
-9 | 13[16.7 µM] | CC(C)NC(=O)N(C)C[C@H]1Oc2c(NC(=O)C3CCOCC3)cccc2C(=O)N([C@H](C)CO)C[C@@H]1C
-9 | 17[16.7 µM] | Cc1ccc(S(=O)(=O)Nc2ccc3c(c2)C(=O)N([C@H](C)CO)C[C@H](C)[C@@H](CN(C)S(=O)(=O)c2ccc(Cl)cc2)OCCCC[C@@H](C)O3)cc1

# Following part
Molecule,UUG fidelity,Env fusion inh
O=C(NC1CCCCC1)N[C@@H]1CC[C@@H](CCNS(=O)(=O)c2ccccc2)O[C@H]1CO,8,14[16.7 µM]
COCC(=O)N(C)C[C@@H]1Oc2ncc(C#Cc3ccccc3)cc2C(=O)N([C@@H](C)CO)C[C@H]1C,11,0[16.7 µM]
C[C@@H]1CN([C@H](C)CO)C(=O)Cc2cc(NS(=O)(=O)c3cn(C)cn3)ccc2O[C@H]1CN(C)S(C)(=O)=O,-17,1[16.7 µM]
C[C@@H]1CN([C@@H](C)CO)C(=O)c2cc(NS(C)(=O)=O)ccc2O[C@@H]1CN(C)Cc1ccc(Oc2ccccc2)cc1,3,-21[16.7 µM]
CO[C@@H]1CN(C)C(=O)c2cc(NS(=O)(=O)c3ccccc3)ccc2OC[C@@H](C)N(C)C[C@H]1C,0,-18[16.7 µM]
COc1cccc(NC(=O)N(C)C[C@H]2OCc3cn(nn3)CCCC(=O)N([C@@H](C)CO)C[C@H]2C)c1,-16,-3[16.7 µM]
CC(C)CC#Cc1cnc2c(c1)C(=O)N([C@H](C)CO)C[C@@H](C)[C@H](CN(C)C(=O)Nc1cc(F)ccc1F)O2,40,25[16.7 µM]
COc1ccc(NC(=O)Nc2cccc3c2O[C@@H](CN(C)Cc2ccc(C(F)(F)F)cc2)[C@@H](C)CN([C@H](C)CO)C3=O)cc1,1,13[16.7 µM]

# Structures above shown as hits in UUG fidelity.
Molecule,UUG fidelity,Env fusion inh
O=S(=O)(N[C@H]1CC[C@@H](CCn2cc(C3(O)CCCC3)nn2)O[C@@H]1CO)c1ccc(F)cc1,178*,-25[16.7 µM]
